# TRPV1 potentiator – enhances activation of the human vanilloid receptor TRPV1 | Q8NER1 | TRPV1-expressing cells, Fluo-8 calcium influx, capsaicin EC20 potentiation; host cell line not named in the record; control for the full effect not named in the record | potentiation, % at 8.33 µM | actives 0.02% (n = 320,000) | AID 540277; active means potentiation above 80%; inconclusive means 30% to 80%; inactive means below 30%; note: 0% is about no effect
# Target sequence (Q8NER1 whole entry, looked up): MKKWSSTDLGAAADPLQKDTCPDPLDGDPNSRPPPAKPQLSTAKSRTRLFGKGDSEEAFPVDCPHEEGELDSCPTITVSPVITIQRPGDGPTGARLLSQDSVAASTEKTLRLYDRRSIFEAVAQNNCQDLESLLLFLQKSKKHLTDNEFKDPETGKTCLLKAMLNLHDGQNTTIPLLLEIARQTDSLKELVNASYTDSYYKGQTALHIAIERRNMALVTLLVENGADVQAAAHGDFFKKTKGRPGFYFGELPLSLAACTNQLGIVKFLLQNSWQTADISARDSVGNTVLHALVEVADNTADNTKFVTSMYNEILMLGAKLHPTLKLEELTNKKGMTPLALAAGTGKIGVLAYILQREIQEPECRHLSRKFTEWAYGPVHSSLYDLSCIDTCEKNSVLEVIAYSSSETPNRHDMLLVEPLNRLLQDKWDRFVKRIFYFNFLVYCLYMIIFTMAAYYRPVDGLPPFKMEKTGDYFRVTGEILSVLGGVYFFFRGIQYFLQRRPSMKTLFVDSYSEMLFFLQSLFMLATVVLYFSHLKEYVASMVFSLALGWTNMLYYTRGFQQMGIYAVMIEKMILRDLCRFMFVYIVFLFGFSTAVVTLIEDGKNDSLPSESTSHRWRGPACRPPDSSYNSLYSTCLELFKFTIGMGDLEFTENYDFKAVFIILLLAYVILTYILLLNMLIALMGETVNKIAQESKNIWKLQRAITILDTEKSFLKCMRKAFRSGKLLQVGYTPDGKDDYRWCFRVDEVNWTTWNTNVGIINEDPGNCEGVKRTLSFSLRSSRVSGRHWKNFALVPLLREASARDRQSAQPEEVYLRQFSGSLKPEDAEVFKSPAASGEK
#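 TRPV1-expressing cells were cultured overnight at 35.5C and loaded with Fluo-8 calcium dye for 40 to 90 min at room temperature. After a 10 s baseline, compound was added and calcium influx was read kinetically for 3 min (ex 480/em 520 nm).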
# ClpP mod – qHTS Assay for Activators of ClpP; purified B. subtilis ClpP, FRET peptide cleavage, 20 min; ATP-dependent Clp protease proteolytic subunit (Bacillus subtilis (strain 168)), P80244; Potency, µM (highest dose often 57.5 µM), inactives show at the highest dose activity change, negative = active; actives 1.9% (n = 340,000); active = well fitted falling curve with a large enough effect; inconclusive = small, poorly fitted or top-dose-only effect; inactive = no such curve, though single readings can be large or run the other way; note: potency is the fitted concentration of half-maximal effect; the source files actives as falling curves though it sought activators and does not explain the sign; nearly all actives have a fitted effect of over 65% in size; many hits overshoot -100%
# Target sequence (P80244 whole entry, looked up): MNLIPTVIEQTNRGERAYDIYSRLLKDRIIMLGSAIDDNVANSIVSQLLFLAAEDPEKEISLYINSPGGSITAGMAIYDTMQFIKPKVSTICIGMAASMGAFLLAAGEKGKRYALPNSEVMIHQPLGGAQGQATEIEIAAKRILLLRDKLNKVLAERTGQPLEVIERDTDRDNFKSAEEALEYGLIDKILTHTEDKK
#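 FRET quenching reversal measured ClpP activation: 10 microg/mL B. subtilis ClpP at pH 8 with the FRET-FV decapeptide, read at 430 nm after 320 nm excitation. The 20-min minus 0-min signal was scaled between DMSO/no-enzyme wells and ADEP (5.8 microM final).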
# gsp agonist – activates gsp, the McCune-Albright syndrome mutation; gsp mutant cells, cAMP HTRF, 30 min; control for the full effect not named in the record; Potency, µM (doses to about 76.9 µM), for inactives: at the highest dose activation (cAMP increase), hits mostly activators; actives 0.13% (n = 340,000); AID 624287; active = well fitted activation curve with a large enough effect; inconclusive = small, poorly fitted or top-dose-only effect, or another doubt; inactive = no such curve, though single readings can be large or run the other way; cell line not stated here;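 note: phosphodiesterase inhibitor Ro 20-1724 added with compounds to block cAMP breakdown; potency is the fitted concentration of half-maximal effect; nearly all actives have a fitted effect of over 60% in size; about a fifth of the inactives were tested at one dose only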
#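 Cells in DMEM/10% FBS with G418 were pretreated with compounds in DMSO plus […] (300 uM stock) for 30 min at 37C. cAMP was measured by HTRF (cAMP-d2 plus anti-cAMP antibody-K) after 30 min at room temperature.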
# gsp antagonist – gsp mutant antagonism. gsp-mutant cells, cAMP HTRF, 30 min; control for the full effect not named in the record. Potency, µM (titrated, usually from 76.9 µM), without a hit: at the highest dose activity change, negative = inhibition, usual class: inhibitors. actives 0.4% (n = 340,000). AID 624288; active = falling curve of any shape with a large fitted effect; inconclusive = falling curve, mostly with a smaller effect; inactive = flat or rising curve; cell line not stated here;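 note: intracellular cAMP measured with PDE inhibitor Ro 20-1724 present during compound exposure; potency is the fitted concentration of half-maximal effect; % is set by controls: 0 for no effect and ±100 for the full control effect; nearly all actives have a fitted effect of over 65% in size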
#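 Measurement of cellular cAMP by homogeneous time-resolved fluorescence following a 30 min compound exposure at 37C. The PDE inhibitor […] was present throughout; the assay buffer was DPBS with 0.05% BSA and 0.005% Tween 20.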
# TRPML1 inh – blocks the human TRPML1 channel | Q9GZU1 | TRPML1-inducible cells, Ca2+ dye fluorescence, FDSS; hits give low values; inhibition of EC80 agonist-evoked calcium signal | activity change, negative = inhibition, % (no concentration beside the values) | actives 0.02% (n = 390,000); in the data active means activity change below about -50%; inconclusive means about -30% to -50%; inactive means above about -30%;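 note: stimulus is agonist 54-4 at its EC80 concentration; % is set by controls: 0 for no effect and ±100 for the full control effect; compound concentration not given in the record; the text of the record puts the active cut at -80%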
#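 TRPML1-DL cells, Tet-induced overnight (~16 h, 37 °C) at 1,500 cells/well, were loaded with Ca8 no-wash dye plus quencher for 45-90 min at room temperature. Compounds were pinned during FDSS kinetic reading; agonist 54-4 at EC80 (4 uM final) then added.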
# Sfp PPTase inh – blocks B. subtilis Sfp PPTase activity | actives 3.5% (n = 310,000) | Potency, µM, without a hit: max response, negative = inhibition, most hits filed as inhibitors | Q9F4F7 | Biochemical Sfp PPTase activity, qHTS; active = well fitted inhibition curve with a large enough effect; inconclusive = small, poorly fitted or top-dose-only effect, or another doubt; inactive = no such curve, though single readings can be large or run the other way;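 note: the enzyme is Sfp with the accession as filed and its product quenches rhodamine fluorescence; potency is the fitted concentration of half-maximal effect; 0% = enzyme reaction without inhibitor and -100% = no enzyme wells; top concentration of the series not given in the record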
#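 Buffer: 50 mM Hepes-Na pH 7.6, 10 mM MgCl2, 0.01% Nonidet P-40, 0.01% BSA. Enzyme 15 nM, pre-exposed to compound 15 min; substrates then added and fluorescence change tracked over 30 min.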
# Menin MLL FP FL – menin-MLL binding inhibition, fluorescein peptide | Fluorescence polarization, fluorescein-MLL peptide displacement from menin | FP activity change, % at 61.4 µM | 290,000 tested, under 10 active; inconclusive = falling polarisation curve, or a change in total fluorescence; inactive = total fluorescence flat and polarisation flat or rising; no compound was filed as active; the % refers to the polarisation; negative = inhibition;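 note: % of control where 0% means no effect; inhibitors lower the polarisation; unlabelled MLL peptide was the positive control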
# * = called active by the depositor; ? = inconclusive; / = not tested or not shown; & = joins results of further samples; [ ] = another dose, or the depositor's remark.
SMILES,TRPV1 potentiator,ClpP mod,gsp agonist,gsp antagonist,TRPML1 inh,Sfp PPTase inh,Menin MLL FP FL
COc1ccc(CN2CCC(CO)(CCOc3ccccc3)CC2)c(OC)c1C,-20,/,13%[15.4 µM],1%,19,-15%,-4.0
COc1ccc(C2C=C(C)Nc3nc(SC)nn32)cc1 (stereo not given),-12,?,7%,4%,-6,-1%,-1.1
Clc1ccc(/C=N/Nc2nnc(Cl)c3ccccc23)cc1,2,1.0%,4%,-8%,0,6%,-1.7
COc1cc(C(C)=O)ccc1OCC(O)CN1CCN(c2ccc(C)cc2C)CC1 (stereo not given),22,1.3%,-4%[15.4 µM],-2%,7,11%,-0.7
O=c1c2ccccc2oc2nc(-c3ccco3)n(Cc3ccccc3)c(=O)c12,-12,-6.1%,0%,2%,-16,6%,12
C[C@H](CO)N1C[C@H](C)[C@@H](CN(C)C(=O)Nc2ccc(C(F)(F)F)cc2)Oc2c(NC(=O)Nc3ccc4c(c3)OCO4)cccc2C1=O,/,-1.3%,-2%,-34%,0,/,/
CCOC(=O)Cc1csc(NC(=O)c2ccc(S(=O)(=O)N3CCCCC3)cc2)n1,0,-1.1%,-38%[inhibitor],?,9,5%,0.1
Cc1ccc(S(=O)(=O)c2cc3ccccc3oc2=Nc2ccc3c(c2)OCCO3)cc1,3,-9.6%,-56%[inhibitor],-4%,-11,-2%,6.8
COc1ccc(CCNC(=O)CCn2c(=O)c3ccccc3n(CC(=O)NCC3CCCO3)c2=O)cc1OC (stereo not given),2,-4.9%,29%,0%,/,17%,-1.7
Cc1ccc(/C=C/C(=O)OCC(=O)Nc2cccnc2Cl)o1,/,/,3%,6%,10,/,/
O=C(c1cccc(S(=O)(=O)N2CCOCC2)c1)N1CCCC1,9,-1.8%,1%,3%,-9,1%,-0.6
O=C(NCCN1CCCC(O)C1)c1cc(COc2ccc(F)cc2Cl)on1 (stereo not given),-2,0.5%,13%,19%,-8,0%,0.5
COc1ccccc1C(=O)O/N=C(\N)c1ccccn1,-19,/,-8%,7%,12,-17%,-1.6
Cc1ccc(Cn2nc(C)c(NC(=O)c3cc(-c4ccco4)on3)c2C)cc1,1,-7.0%,1%,-8%,-7,-9%,8.8
O=C(NCC1COc2ccccc2O1)C1CCC(CNc2c(N3CCCCC3)c(=O)c2=O)CC1 (stereo not given),-3,0.5%,-50%[inhibitor],6%,-9,8%,0.2
CN1CCC(=NNC(=O)CSCc2ccccc2)CC1,13,-0.4%,-35%[inhibitor],9%,15,9%,1.4
O=C(CSc1nnc(-c2ccncc2)n1CC1CCCO1)NCc1ccccc1 (stereo not given),5,-3.3%,3%,-5%,7,12%,3.2
Cc1ccc(S(=O)(=O)n2[nH]c(=O)cc2N)cc1,-7,-6.8%,-6%,-5%,?,-2%,-3.3
CN(C[C@H](Cc1ccccc1)N(C[C@H](Cc1cccc2ccccc12)N(CCc1ccccc1)N=O)N=O)N=O,8,-2.0%&1.1%,/,0%,13,5%,1.7
O=C(CC1CCCC1)Nc1nnc(C2CC2)s1,-13,-2.1%,-37%[inhibitor],3%,4,15%,1.0
CCOc1ncccc1C(=O)NCC(c1ccco1)N1CCCCC1 (stereo not given),/,5.1%,12%[15.4 µM],10%,12,/,/
COc1cc(/C=C(\NC(=O)c2ccccc2)C(=O)NCC(=O)O)c([N+](=O)[O-])cc1OC,?,0.6%,1%,6%,-8,?,/
CC1CCN(C(=O)Cn2nnc(-c3cccs3)n2)CC1,-10,-0.2%,8%,-2%,13,7%,-5.7
CN(C)C1(CNC(=O)CC(NC(=O)c2ccccc2Cl)c2ccccc2)CCCCC1 (stereo not given),-2,/,3%[15.4 µM],-1%,41,17%,-3.3
COc1ccc(/C=C2/SC(=S)N(CC(=O)O)C2=O)cc1OCc1ccc(Cl)cc1,14,0.7%,1%,?,29,-33%,9.8
O=c1[nH]c2ccc(NCc3ccc(OCc4ccccc4Cl)cc3)cc2[nH]1,18,16%,4%,5%,-14,0%,11
N#Cc1c(-c2ccc(Cl)cc2)c2c([nH]c1=O)-c1ccccc1OC2,-5,-0.9%,16%[15.4 µM],-28%,-14,10%,3.9
CC(C)C(OC(=O)c1ccco1)C(=O)NCc1cccs1 (stereo not given),-9,50%,7%[15.4 µM],-6%,19,-15%,-0.8
CCOc1ccccc1NC(=O)c1nnn(-c2ccc3c(c2)OCCO3)c1N,3,/,9%[15.4 µM],?,-10,-23%,2.3
COc1ccc2nc(NC(=O)CNS(=O)(=O)c3cccs3)sc2c1,7,-1.4%,11%,-10%,0,-2%,1.8
O=c1c(Cc2ccc(F)cc2)c(O)ccn1CCCn1ccnc1,-15,0.7%,32%,6%,-6,8%,0.7
CCOC(=O)C(CC)Sc1nnc2n1C(C)(C)Cc1ccccc1-2 (stereo not given),/,-2.3%,22%,-6%,7,6%,0.8
CC(C)CN(C(=O)c1ccc2c(c1)OCO2)C1CCS(=O)(=O)C1 (stereo not given),0,/,0%[15.4 µM],8%,22,/,/
Cc1ccccc1Oc1nc2c(C)cccn2c(=O)c1/C=C(\C#N)C(=O)NC1CCS(=O)(=O)C1 (stereo not given),-1,0.9%,12%[15.4 µM],12%,27,-7%,3.6
CCOCCCNC(=O)C(c1ccc(C)cc1)N(Cc1ccc2c(c1)OCO2)C(=O)c1cnccn1 (stereo not given),4,0.2%,-2%,0%,-6,-2%,1.6
COc1ccccc1CCc1nnc(CCC(=O)NC(C)Cn2nc(C)cc2C)o1 (stereo not given),-5,/,1%,0%,0,14%,0.5
O=C(Cn1cnc2ccccc21)N/N=C/c1cccnc1,1,/,-4%,0%,-5,22%,0.4
CC(=O)Nc1ccc(C(=O)OCc2ccc(F)cc2Cl)cc1,-3,/,-33%[inhibitor],-7%,37,2%,1.3
O=C(CN1C(=O)NC2(CCCC2)C1=O)N1CCN(S(=O)(=O)c2ccccc2Br)CC1,3,-0.2%,?,-8%,31,4%,1.2
Cc1ccc2nc(NC(=O)Cn3cc4c(n3)CCCCC4)sc2c1,13,-6.4%,?,5%,-1,25%,-2.2
CCn1cc(/C=C(\NC(=O)c2ccccc2)C(=O)NCCCn2ccnc2)c2ccccc21,/,-1.9%,?,/,-4,/,/
O=c1[nH]c(C(F)(F)C(F)(F)C(F)(F)F)no1,/,1.3%,-7%[15.4 µM],6%,5,/,/
CCOc1ccc(/C=N/NC(=O)C(OC)c2ccccc2)cc1 (stereo not given),4,/,-2%,-4%,0,16%,1.0
COc1ccc(C(=O)N2CCCC(CO)(Cc3ccccc3C)C2)o1 (stereo not given),-25,-1.7%,-53%[inhibitor],-1%,12,-10%,/
COc1ccc(OC)c2c1C(=O)c1ccccc1C2=O,13,2.8%,8%,13%,-13,40µM*,?
CSc1ncccc1C(=O)Nc1ccccc1N1CCOCC1,/,-0.6%,5%,8%,23,/,/
CC(=O)N(CN1C(=O)C2C3C=CC(C3)C2C1=O)c1cccc(Cl)c1 (stereo not given),4,0.7%,-29%,4%,13,-11%,4.3
COc1ccc(-c2csc(NC(CO)c3nc4ccccc4n3CCOCCO)n2)cc1 (stereo not given),/,-2.6%,2%,-1%,-13,/,/
O=C(CCCN1C(=O)/C(=C/c2ccc(F)cc2)SC1=S)NCCCn1ccnc1,14,0.8%,-69%[inhibitor],?,-5,-3%,-0.9
COc1ccc(C2=NN(C(=O)c3cccc([N+](=O)[O-])c3)C(c3cccc([N+](=O)[O-])c3)C2)cc1 (stereo not given),6,1.3%,-8%,1%,0,3%,-1.8
O=C(CCCCCN1C(=O)c2cccc([N+](=O)[O-])c2C1=O)NCCc1ccccc1,/,-5.5%,-65%[inhibitor],/,-15,/,/
CC(=O)Nc1sc(/C(C#N)=C/c2ccc(Cl)c(Cl)c2)nc1-c1ccc(C)cc1,7,-1.5%,?,6%,?,16µM*,?

# 8 structures already listed, sorted by length of the SMILES, low to high:
SMILES,TRPV1 potentiator,ClpP mod,gsp agonist,gsp antagonist,TRPML1 inh,Sfp PPTase inh,Menin MLL FP FL
CSc1ncccc1C(=O)Nc1ccccc1N1CCOCC1,/,-0.6%,5%,8%,23,/,/
O=c1[nH]c(C(F)(F)C(F)(F)C(F)(F)F)no1,/,1.3%,-7%[15.4 µM],6%,5,/,/
CCOc1ccc(/C=N/NC(=O)C(OC)c2ccccc2)cc1 (stereo not given),4,/,-2%,-4%,0,16%,1.0
COc1ccc(C(=O)N2CCCC(CO)(Cc3ccccc3C)C2)o1 (stereo not given),-25,-1.7%,-53%[inhibitor],-1%,12,-10%,/
COc1ccc(-c2csc(NC(CO)c3nc4ccccc4n3CCOCCO)n2)cc1 (stereo not given),/,-2.6%,2%,-1%,-13,/,/
O=C(CCCN1C(=O)/C(=C/c2ccc(F)cc2)SC1=S)NCCCn1ccnc1,14,0.8%,-69%[inhibitor],?,-5,-3%,-0.9
CC(=O)Nc1sc(/C(C#N)=C/c2ccc(Cl)c(Cl)c2)nc1-c1ccc(C)cc1,7,-1.5%,?,6%,?,16µM*,?
COc1ccc(C2=NN(C(=O)c3cccc([N+](=O)[O-])c3)C(c3cccc([N+](=O)[O-])c3)C2)cc1 (stereo not given),6,1.3%,-8%,1%,0,3%,-1.8
